Source: PubChem BioAssay
NPYLR7 agonist: activates Aedes aegypti NPYLR7 receptor; 270,000 compounds, 0.15% hits; AID 1259423; activation, % at 10 µM; HEK293T NPYLR7/Galpha15, GCaMP6s calcium fluorescence; in the data active means activation above about 40%;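 further: 0% = vehicle and 100% = reference agonist at the receptor; some compounds past the cut are filed as inactive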
NPYLR7 agonist max-min: also measured in NPYLR7 agonist; calls as there; activation, %; measured here: Max-Min RFU normalised activation; some inactives read as strong as hits;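 span of the calcium signal over five minutes; 0% = vehicle and 100% = native peptide agonist; compound fluorescence can raise it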
* = called active by the depositor; & = joins results of further samples. Some of the compounds tested; rates above refer to the full screens.

For CCCCOc1ccc(C(=O)N(CCOC)CC(=O)N(CCc2c[nH]c3ccccc23)Cc2ccc(OC)c(OC)c2)cc1 the results were NPYLR7 agonist 21 and NPYLR7 agonist max-min 15.
COc1cc(NC(=O)CN2C(=O)c3ccccc3C2=O)c(OC)cc1Cl was read as NPYLR7 agonist -3 and NPYLR7 agonist max-min -7.
`COc1ccc(C2=NN(C(N)=S)C(c3ccco3)C2)cc1` (stereo unspecified) gave NPYLR7 agonist 3 and NPYLR7 agonist max-min 9.
CCc1nc2ccc(C(=O)N3CCN(c4ccccc4)CC3)cn2c1N(C)Cc1cc2ccccc2s1 was read as NPYLR7 agonist 10 and NPYLR7 agonist max-min 13.
For COCc1cc(C)nc(OCC(=O)N/N=C\c2cccc([N+](=O)[O-])c2)c1C#N the results were NPYLR7 agonist 4 and NPYLR7 agonist max-min 0.
CC(=O)Nc1ccc(-n2ccc3c(cnc4c(-c5ccc(F)cc5)c(C)nn43)c2=O)cc1 was read as NPYLR7 agonist 28 and NPYLR7 agonist max-min 20.
CC(Cc1cnccn1)n1cc(-c2ccnc3ccccc23)nn1 (stereo unspecified) was read as NPYLR7 agonist -2 and NPYLR7 agonist max-min -4.
For CC(C)Cc1ccc(C2CC(=O)Nc3[nH]ncc32)cc1 (stereo unspecified) the results were NPYLR7 agonist -1 and NPYLR7 agonist max-min -2.
`CC(C)C(C)(CNC(=O)OC(C)(C)C)NC(=O)CCc1cccnc1` (stereo unspecified) gave NPYLR7 agonist -1 and NPYLR7 agonist max-min 5.
Screening O=S(=O)(Nc1ccccn1)c1ccc(C2CCCCC2)cc1 returned NPYLR7 agonist 8 and NPYLR7 agonist max-min 2.
COc1cccc2sc(Nc3nc4cc5c(cc4s3)OCO5)nc12 was read as NPYLR7 agonist 6 and NPYLR7 agonist max-min 1.
Screening O=C(Nc1ccc(N2CCC(Cc3ccccc3)CC2)c(C(=O)NCC2CCCO2)c1)c1cccc(Br)c1 (stereo unspecified) returned NPYLR7 agonist -1 and NPYLR7 agonist max-min 8.
`O=S(=O)(c1cccs1)N1CCN(Cn2nc3ccccn3c2=S)CC1` gave NPYLR7 agonist 4 and NPYLR7 agonist max-min 6.
Screening O=C(CCN1C(=O)c2ccccc2C1=O)Nc1ccccc1O returned NPYLR7 agonist -4 and NPYLR7 agonist max-min -9.
`O=C(NCCOc1ccccc1)N1CCN(S(=O)(=O)c2ccc(Cl)c(Cl)c2)CC1` gave NPYLR7 agonist -3 and NPYLR7 agonist max-min -5.
For Cc1nc(C2(NC(=O)c3ccc4c(c3)OCCCO4)CCCCC2)no1 the results were NPYLR7 agonist -4 and NPYLR7 agonist max-min -4.
Screening O=C(NCC1COc2ccccc2O1)c1cccnc1Oc1ccccc1 (stereo unspecified) returned NPYLR7 agonist -8 and NPYLR7 agonist max-min -11.
For Fc1cccc(F)c1C=Cc1ccc2ccccc2n1 the results were NPYLR7 agonist -2 and NPYLR7 agonist max-min -5.
`CCCCOc1cccc(C(=O)Nc2nnc(-c3ccccc3S(C)(=O)=O)o2)c1` gave NPYLR7 agonist 4 and NPYLR7 agonist max-min -1.
O=[N+]([O-])c1ccc(C(O)CNC(=S)NC2CC3CCC2C3)cc1 (stereo unspecified) was read as NPYLR7 agonist 2 and NPYLR7 agonist max-min 2.

Quoted at random: 3 records from the list
For Cc1nc(C2(NC(=O)c3ccc4c(c3)OCCCO4)CCCCC2)no1 the results were NPYLR7 agonist -4 and NPYLR7 agonist max-min -4.
COc1cc(NC(=O)CN2C(=O)c3ccccc3C2=O)c(OC)cc1Cl was read as NPYLR7 agonist -3 and NPYLR7 agonist max-min -7.
`CC(C)C(C)(CNC(=O)OC(C)(C)C)NC(=O)CCc1cccnc1` (stereo unspecified) gave NPYLR7 agonist -1 and NPYLR7 agonist max-min 5.

Back to the main list, starting 2 compounds before the break.
`CCCCOc1cccc(C(=O)Nc2nnc(-c3ccccc3S(C)(=O)=O)o2)c1` gave NPYLR7 agonist 4 and NPYLR7 agonist max-min -1.
O=[N+]([O-])c1ccc(C(O)CNC(=S)NC2CC3CCC2C3)cc1 (stereo unspecified) was read as NPYLR7 agonist 2 and NPYLR7 agonist max-min 2.
Screening COc1ccc(CN2CCNC(=O)C2CC(=O)NCCSC)c(F)c1 (stereo unspecified) returned NPYLR7 agonist 12 and NPYLR7 agonist max-min 8.
Screening CN1CCc2c(sc3nc(=S)[nH]c(Nc4ccccc4)c23)C1 returned NPYLR7 agonist -2 and NPYLR7 agonist max-min -2.
`CC(C)(C)c1ccc(-c2noc(Cn3c(=O)n(Cc4ccco4)c(=O)c4ccccc43)n2)cc1` gave NPYLR7 agonist -1 and NPYLR7 agonist max-min -4.
`CC(=NNS(=O)(=O)c1cc(C)ccc1C)c1ccc2c(c1)OCCO2` gave NPYLR7 agonist -7 and NPYLR7 agonist max-min -14.
O=C(CCN1CCCCO1)N1CC[C@@H](c2ccc3c(c2)OCO3)[C@H](O)C1 was read as NPYLR7 agonist 1 and NPYLR7 agonist max-min 3.
Screening Cc1ccc(C2c3ccccc3CCN2C(=O)Cc2nc(-c3cccc(C(F)(F)F)c3)oc2C)cc1 (stereo unspecified) returned NPYLR7 agonist -4 and NPYLR7 agonist max-min 3.
For Oc1oc(-c2ccccc2F)nc1C=Nc1cccc(F)c1 the results were NPYLR7 agonist -6 and NPYLR7 agonist max-min -7.
For CCOC(=O)CCNC(=O)N1CCCC(C(=O)c2ccc3c(c2)OCO3)C1 (stereo unspecified) the results were NPYLR7 agonist -10 and NPYLR7 agonist max-min -12.
`C=CCN(CC(=O)NC(C)CC)S(=O)(=O)c1ccc(Cl)c(Cl)c1` (stereo unspecified) gave NPYLR7 agonist 8 and NPYLR7 agonist max-min 5.
For COC(=O)c1ccccc1NC(=S)N1CCCc2c1[nH]c1ccccc21 the results were NPYLR7 agonist -9 and NPYLR7 agonist max-min -14.
Screening Cc1ccc(-n2nc(-c3ccc(F)cc3)cc2C(=O)NC(c2ccccc2)c2ccccc2)c(C)c1 returned NPYLR7 agonist -4 and NPYLR7 agonist max-min -2.
C[n+]1cn(Cc2cccc3ccccc23)c2ccccc21 was read as NPYLR7 agonist 1 and NPYLR7 agonist max-min -2.
Cc1ccc(N2CCN(C(=O)c3ccc(C(F)(F)F)cc3)C(C)C2=O)cc1F (stereo unspecified) was read as NPYLR7 agonist 22 and NPYLR7 agonist max-min 27.
`Cc1nn(C2CCS(=O)(=O)C2)c2nc(-c3ccccc3)cc(C(=O)NCCc3ccc(F)cc3)c12` (stereo unspecified) gave NPYLR7 agonist 2 and NPYLR7 agonist max-min 8.
`CC(C(=O)NC1CCCC1)n1nnc(-c2ccc(Br)cc2)n1` (stereo unspecified) gave NPYLR7 agonist -5&16 and NPYLR7 agonist max-min -6&15.
`Cc1cc(N)n(-c2cc(N3CCCCCCC3)ncn2)n1` gave NPYLR7 agonist -22 and NPYLR7 agonist max-min -20.
`O=C(c1ccc(C(F)(F)F)[nH]c1=O)N1CCN(c2nccs2)CC1` gave NPYLR7 agonist 3 and NPYLR7 agonist max-min 1.
For O=C(O)CC1SC(N/N=C\c2ccc([N+](=O)[O-])cc2)NC1=O (stereo unspecified) the results were NPYLR7 agonist -12 and NPYLR7 agonist max-min -11.
CCN(CC)c1ccc(CN(Cc2ccc(F)cc2)C(=O)CC(C)(C)C)c(OS(=O)(=O)c2ccc(OC)cc2)c1 was read as NPYLR7 agonist 3 and NPYLR7 agonist max-min 5.
`COc1cc(/C=C/C(=O)N2CCN(CC(=O)N3CCCC3)CC2)cc(OC)c1OC` gave NPYLR7 agonist -27 and NPYLR7 agonist max-min -33.

Quoted from above for reference:
For O=C(O)CC1SC(N/N=C\c2ccc([N+](=O)[O-])cc2)NC1=O (stereo unspecified) the results were NPYLR7 agonist -12 and NPYLR7 agonist max-min -11.
CCN(CC)c1ccc(CN(Cc2ccc(F)cc2)C(=O)CC(C)(C)C)c(OS(=O)(=O)c2ccc(OC)cc2)c1 was read as NPYLR7 agonist 3 and NPYLR7 agonist max-min 5.
`COc1cc(/C=C/C(=O)N2CCN(CC(=O)N3CCCC3)CC2)cc(OC)c1OC` gave NPYLR7 agonist -27 and NPYLR7 agonist max-min -33.

The listing picks up; the 3 compounds before the break are reprinted first.
For O=C(O)CC1SC(N/N=C\c2ccc([N+](=O)[O-])cc2)NC1=O (stereo unspecified) the results were NPYLR7 agonist -12 and NPYLR7 agonist max-min -11.
CCN(CC)c1ccc(CN(Cc2ccc(F)cc2)C(=O)CC(C)(C)C)c(OS(=O)(=O)c2ccc(OC)cc2)c1 was read as NPYLR7 agonist 3 and NPYLR7 agonist max-min 5.
`COc1cc(/C=C/C(=O)N2CCN(CC(=O)N3CCCC3)CC2)cc(OC)c1OC` gave NPYLR7 agonist -27 and NPYLR7 agonist max-min -33.
`CN(Cc1ccc2ccccc2n1)C(=O)c1ccc(-c2ccncc2)nc1` gave NPYLR7 agonist 8 and NPYLR7 agonist max-min 6.
CCN(CCn1cccn1)Cc1cc(F)ccc1O was read as NPYLR7 agonist -1 and NPYLR7 agonist max-min 0.
For Cc1nc2ccc(NC(=O)c3sc4ncccc4c3N)cc2[nH]1 the results were NPYLR7 agonist -8 and NPYLR7 agonist max-min -14.
CCN(CC(=O)NC(C)c1ccccc1Cl)C(C)c1ccc(C#N)cc1 (stereo unspecified) was read as NPYLR7 agonist 12 and NPYLR7 agonist max-min 7.
OCCNc1cc(-c2csc3ccccc23)ncn1 was read as NPYLR7 agonist 36 and NPYLR7 agonist max-min 37.
Cc1ccc(C(=O)N(C)C2CCCN(CCc3ccccc3)C2)cc1N1CCNC1=O (stereo unspecified) was read as NPYLR7 agonist 7 and NPYLR7 agonist max-min 7.
Screening CCOc1ccccc1-n1nnc(C(=O)Nc2ccccc2)c1C returned NPYLR7 agonist -8 and NPYLR7 agonist max-min -13.
For Cc1ccccc1N1CCN(c2ncccc2CNC(=O)C2CCCCO2)CC1 (stereo unspecified) the results were NPYLR7 agonist 4 and NPYLR7 agonist max-min 5.
Screening COc1ccc2nc(NS(C)(=O)=O)sc2c1 returned NPYLR7 agonist 9 and NPYLR7 agonist max-min 8.
For C=CCNC(=O)NC(=O)CSc1nncn1C the results were NPYLR7 agonist 0 and NPYLR7 agonist max-min 0.
`Cc1cccc(NC(=O)CSc2ccc3nnc(CCNS(=O)(=O)c4ccccc4)n3n2)c1` gave NPYLR7 agonist 6 and NPYLR7 agonist max-min -4.
`Cn1cc(S(=O)(=O)O)cc1-c1nc2ccccc2n1C` gave NPYLR7 agonist 14 and NPYLR7 agonist max-min 6.
CCn1ncc(Br)c1C(=O)N(C)C12CC3CC(CC(C3)C1)C2 was read as NPYLR7 agonist 8 and NPYLR7 agonist max-min 12.
`O=C(NCc1ccc2c(c1)OCO2)c1ccc(-c2cc(-c3cccc4c3OCCO4)[nH]n2)cc1` gave NPYLR7 agonist 4 and NPYLR7 agonist max-min -1.
Screening C=C(C)CN1CCN(c2cc(C)nc3c(-c4ccccc4)c(CC)nn23)CC1 returned NPYLR7 agonist 4 and NPYLR7 agonist max-min 2.
Screening CC1=C(C(=O)OCCc2ccccc2)C(c2cccs2)NC(=O)N1C (stereo unspecified) returned NPYLR7 agonist -3 and NPYLR7 agonist max-min -8.
C=Cc1cccc(CN2CCCC(CNC(=O)C3(N)CCC3)C2)c1 (stereo unspecified) was read as NPYLR7 agonist -2 and NPYLR7 agonist max-min -7.
Screening CC(C)CNc1nnc(SCC(=O)Nc2ccc(F)cc2F)s1 returned NPYLR7 agonist -1 and NPYLR7 agonist max-min 0.
CCCC(C)NC(=O)CN1CCN(c2ccc(C(F)(F)F)cn2)CC1 (stereo unspecified) was read as NPYLR7 agonist 2 and NPYLR7 agonist max-min 1.
Screening C=CCN1CC(O)CN(C(=O)c2ccc(OC)c(OC)c2)CC1=O (stereo unspecified) returned NPYLR7 agonist 2 and NPYLR7 agonist max-min 15.
Screening CN(C(=O)CN(CCOC(=O)N1CCC2(CC1)C(=O)NCN2c1ccccc1)CC(=O)N(C)C(C)(C)Cc1ccccc1)C(C)(C)Cc1ccccc1 returned NPYLR7 agonist 3 and NPYLR7 agonist max-min 3.
For COCCNC(=S)NC(=O)c1ccco1 the results were NPYLR7 agonist 5 and NPYLR7 agonist max-min 4.
Screening O=C(c1cc2n(n1)CCN(Cc1ccc(Cl)cc1)C2=O)N1CCC(n2c(=O)[nH]c3ccccc32)CC1 returned NPYLR7 agonist 16 and NPYLR7 agonist max-min 11.
`CC(=O)C1=C(C)Nc2ncnn2C1c1cccs1` (stereo unspecified) gave NPYLR7 agonist 2 and NPYLR7 agonist max-min 0.
`CCOC(=O)C1CCCN(C(=O)c2ccc(CSc3nc(COC)cc(N4CCN(c5ccccc5F)CC4)n3)cc2)C1` (stereo unspecified) gave NPYLR7 agonist -10 and NPYLR7 agonist max-min -3.
O=S(=O)(Nc1ccc(Cl)cc1F)c1cc(Cl)ccc1Cl was read as NPYLR7 agonist -9 and NPYLR7 agonist max-min -14.
Screening Cc1cccc(CN(C(=O)c2ccc(F)cc2)C2CCC(NC(=O)C3CCN(C(=O)C4CCC4)CC3)CC2)c1 (stereo unspecified) returned NPYLR7 agonist 3 and NPYLR7 agonist max-min 10.
CC1(C)OCC(CNC(=O)c2cncn2-c2cccc(-c3cccc4c3sc3ccccc34)c2)O1 (stereo unspecified) was read as NPYLR7 agonist 31 and NPYLR7 agonist max-min 32.
CC(C)=CCN1CCN(C/C=C/c2ccc(F)cc2)CC1CCO (stereo unspecified) was read as NPYLR7 agonist 14 and NPYLR7 agonist max-min 4.
For CN(C)CC1=CC(C=NC2CCCCC2)C(=S)S1 (stereo unspecified) the results were NPYLR7 agonist 3 and NPYLR7 agonist max-min 1.
`CCC(C(=O)NCC1=CCN(C)CC1)c1ccccc1` (stereo unspecified) gave NPYLR7 agonist 2 and NPYLR7 agonist max-min 2.
`CC1(C(=O)NS(=O)(=O)c2cccc(Cl)c2)CCN1C(=O)c1cccc(F)c1` (stereo unspecified) gave NPYLR7 agonist 0 and NPYLR7 agonist max-min 1.
`O=C(c1cn(Cc2ccccc2F)nn1)N1CCCC(OCc2ccccn2)C1` (stereo unspecified) gave NPYLR7 agonist 4 and NPYLR7 agonist max-min 1.
`CCCCCOc1ccc(C(=O)NC2C[C@@H]3C[C@H]([C@H]2C)C3(C)C)cc1OCCCCC` (stereo partly specified) gave NPYLR7 agonist -7 and NPYLR7 agonist max-min -17.
